Methyltransferases – Primary Screen for Target Class Profiling of Small Molecule Inhibitors of Methyltransferases; purified enzyme, MTase-Glo SAH luminescence; active compounds read low; calls only at 40 µM; actives 3.9% (n = 25,000); AID 1745853, 2022; active = -50% or lower on at least one of six enzymes; inconclusive = the cases between; inactive = as a rule above -30% on all six;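 note: enzymes were COMT GAMT GNMT HNMT NNMT and PNMT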
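Each enzyme was reacted with SAM and its substrate, with compounds tested once at 40 uM; SAH formed was read by MTase-Glo luminescence.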
Calls only; i = inactive; u = inconclusive; + = active, no number. % is set by controls: 0 for no effect and ±100 for the full control effect.

The opening 5 records, to show the layout:
SMILES | Methyltransferases
C/C=C/C1=CC2=CC(=O)C(C)(O)C(OC(=O)c3c(C)cc(O)cc3O)C2CO1 (centres undefined) | i
CCCSCCCN1C(=O)c2cc(-c3cccs3)nn2CC1(C)C(=O)NC1CCCCC1 (centres undefined) | i
CCOC(=O)c1cc2n(n1)CC(C)(C(=O)NC1CCCCCC1)N(c1ccccc1CC)C2=O (centres undefined) | i
CC(=O)Nc1cccc(C(=O)NCc2nn(Cc3ccccc3)c3ccccc23)c1 | i
Cc1ccc(F)c(C(=O)N[C@H]2CCOC[C@H]2C2CCOCC2)c1Cl | i

Results, previewed entries included:
SMILES | Methyltransferases
C/C=C/C1=CC2=CC(=O)C(C)(O)C(OC(=O)c3c(C)cc(O)cc3O)C2CO1 (centres undefined) | i
CCCSCCCN1C(=O)c2cc(-c3cccs3)nn2CC1(C)C(=O)NC1CCCCC1 (centres undefined) | i
CCOC(=O)c1cc2n(n1)CC(C)(C(=O)NC1CCCCCC1)N(c1ccccc1CC)C2=O (centres undefined) | i
CC(=O)Nc1cccc(C(=O)NCc2nn(Cc3ccccc3)c3ccccc23)c1 | i
Cc1ccc(F)c(C(=O)N[C@H]2CCOC[C@H]2C2CCOCC2)c1Cl | i
CCCCCCCCCCCCC/C=C/[C@@H](O)[C@H](CO)N(C)C | u
CCCN1C(=O)c2cc(C(=O)NCc3ccc(OC)cc3)nn2CC1(C)C(=O)NC1CCCC1 (centres undefined) | i
CCOc1ccc(CNC(=O)c2cc3n(n2)CC(C)(C(=O)NCCC(C)C)N(C)C3=O)cc1OC (centres undefined) | i
O=C(Cc1cccn1-c1ccc(F)cc1)N1CCCCC1 | i
O=C(c1ccoc1)N1CCC(Cc2nc(C3CC3)n[nH]2)C1 (centres undefined) | i
CC1(C)CC23[C@@H]4CC(=O)[C@@H]2COC(=O)[C@@H]3CC[C@H]41 | i
O=c1n(CCN2CCCC(N[S+](=O)([O-])c3ccccc3)C2)nc2n1CCCC2 (centres undefined) | i
Cc1ccc(CNc2nc3c(-c4cccc(F)c4)nnn3c3ccccc23)cc1 | i
COc1ccc(CCN2C(=O)c3cc4sccc4n3CC2(C)C(=O)NC2CCCCC2)cc1OC (centres undefined) | i
C[C@@H]1O[C@@H](O[C@H]2[C@H](O[C@H]3[C@H](O[C@H]4CC[C@@]5(C)C(CC[C@]6(C)C5CC=C5[C@@H]7CC(C)(C)CC(=O)[C@]7(C)CC[C@]56C)[C@@]4(C)CO)O[C@H](C(=O)O)[C@@H](O)[C@@H]3O)O[C@H](CO)[C@H](O)[C@@H]2O)[C@H](O)[C@H](O)[C@H]1O (some centres undefined) | i
Cc1ccc(-c2nnc3n(Cc4ccccc4)c(=O)c4ccccc4n23)cc1 | i
O=C(Cn1c(=O)n2nc(-c3ccccc3)nc2c2ccccc21)N1CCN(c2ccc(F)cc2)CC1 | i
Cc1ccc(C)c(CN2CC(=O)N(Cc3ccc(Cl)cc3)c3ccccc3S2(=O)=O)c1 | i
CC1CCCC(NC(=O)C2(C)Cn3c(cc4occc43)C(=O)N2Cc2cccc(Cl)c2)C1C (centres undefined) | i
CC1CCCCC1NC(=O)C1(C)Cn2c(nc3ccccc32)C(=O)N1Cc1ccc(Cl)cc1 (centres undefined) | i
CC1C(=O)Nc2ccc(S(=O)(=O)N3CCN(c4cccc(Cl)c4)CC3)cc2NC1=O (centres undefined) | i
COc1ccccc1CNC(=O)CCc1nnc2n(Cc3ccc(C)cc3)c(=O)c3ccccc3n12 | i
OC[C@H]1O[C@@H](Oc2cc(O)c3c(c2)O[C@@H](c2ccc(O)cc2)[C@H](O)C3)[C@H](O)[C@@H](O)[C@@H]1O | i
CCCn1c(=O)c2ccc(C(=O)NCC(C)C)cc2n2c(=O)n(CC(=O)Nc3cc(C)cc(C)c3)nc12 | i
COc1ccc(CCO[C@@H]2CCCC[C@H]2N2CC[C@@H](O)C2)cc1OC | i
C/C1=C\CC[C@]2(C)O[C@H]2C(=O)c2c(C)coc2C1 | i
Cc1ccc(C)c(C(=O)Cn2nc3n(C(C)C)c(=O)c4ccc(C(=O)NCC(C)C)cc4n3c2=O)c1 | i
O=C(NCc1ccc2c(c1)OCO2)c1sc(=S)n2c1[nH]c(=O)c1ccc(Cl)cc12 | +
O=S(=O)(Cc1ccccc1)N[C@H]1CO[C@H]2[C@@H]1OC[C@@H]2Nc1nccc(-c2cccc(F)c2)n1 | i
CN(C)S(=O)(=O)N1[C@@H]2CC[C@H]1CC(NC(=O)c1ccc(F)cc1)C2 (some centres undefined) | i
C/C=C(\C)C(=O)O[C@@H](C)[C@H]1CC[C@]2(O)C3CCC4C[C@@H](OC5CC(OC)C(OC6CC(OC)C(OC7CC(OC)C(OC8OC(C)C(OC9OC(CO)C(O)C(O)C9O)C(OC)C8O)C(C)O7)C(C)O6)C(C)O5)CC[C@]4(C)C3[C@H](O)[C@@H](O)[C@]12C (some centres undefined) | i
Cc1cc(C)n(CC(=O)N2CCC3(CC2)CC(CN2CCOCC2)N(C)C3)n1 (centres undefined) | i
Cc1noc(-c2ccc(-c3ccc(CC(=O)O)cc3)cc2)c1NC(=O)O[C@H](C)c1ccccc1Cl | i
COc1ccc(OC)c(CNC(=O)c2cc3n(n2)CC(C)(C(=O)NC2CCCC2)N(C)C3=O)c1 (centres undefined) | i
CCS(=O)(=O)N1CCC(c2noc(COc3ccc(F)cc3)n2)C1 (centres undefined) | i
CCCCN1C(=O)c2cc(C(=O)NCc3ccccc3OCC)nn2CC1(C)C(=O)NC1CCCC1 (centres undefined) | i
Cc1cc(C(C#N)c2ccc(Cl)cc2)c(Cl)cc1NC(=O)c1cc(I)cc(I)c1O (centres undefined) | +
O=C(O/N=C1\c2ccccc2-c2nc3ccccc3nc21)c1ccco1 | u
CCC/C=C/c1cc2c(C=O)c(O)c(CC=C(C)C)cc2o1 | u
CC(C)(NS(=O)(=O)c1ccc(Oc2ccc(F)cc2)cc1)C(=O)NO | i
CCCC(CCC)C(=O)OC1CC2CCC(C1)[N+]2(C)C (centres undefined) | i
Cc1cc(F)ccc1NS(=O)(=O)c1ccc2[nH]c(=O)[nH]c2c1 | i
COc1ccccc1N1CCN(C(=O)Cn2c(=O)oc3cc(S(=O)(=O)N4CCCC4)ccc32)CC1 | i
COc1ccc([C@@H]2CN(C(=O)CCc3ccsc3)C[C@H]2N(C)C)cc1 | i
Cc1ccc(C)c(Cn2nc3n(CCCOC(C)C)c(=O)c4ccccc4n3c2=O)c1 | i
Cc1ccc(CN2C(=O)c3cc4occc4n3CC2(C)C(=O)NC2CCCC(C)C2C)cc1 (centres undefined) | i
C=CCN1CCN(C(=O)c2ccc3c(c2)C(O)CCCCCN3CCOC)CC1 (centres undefined) | i
CCCn1c(=O)c2ccc(C(=O)NCC(C)C)cc2n2c(=O)n(CC(=O)Nc3ccc(C)cc3)nc12 | i
O=C(c1c2ccccc2cc2ccccc12)N1CCC(N2CCC[C@@H](C(=O)N3CCOCC3)C2)CC1 | i
Cc1ccc(CN2C(=O)c3cc4ccccc4n3CC2(C)C(=O)NC2CCCCC2)cc1 (centres undefined) | i
O=C1CN(Cc2ccc(Cl)cc2)S(=O)(=O)c2ccccc2N1Cc1ccccc1F | i
O=c1[nH]cnc2c([C@@H]3N[C@H](CO)[C@@H](O)[C@H]3O)c[nH]c12 | i
CC1CCCCC1NC(=O)C1(C)Cn2c(ccc2-c2ccco2)C(=O)N1CCc1ccccc1 (centres undefined) | i
OC[C@H]1O[C@@H](OCc2ccccc2)[C@H](O)[C@@H](O)[C@@H]1O | i
CCOC(=O)c1cc2n(n1)CC(C)(C(=O)NCc1ccc(C)cc1)N(Cc1ccccc1Cl)C2=O (centres undefined) | i
Cc1cc(OCCCS(C)(=O)=O)cc(C)c1-c1cccc(COc2ccc3c(c2)OCC3CC(=O)O)c1 (centres undefined) | u
COc1ccc(C)cc1NC(=O)Cn1c(=O)c2ccc(Cl)cc2n2nncc12 | i
COc1ccc(-c2cc3n(n2)CC(C)(C(=O)NCc2ccccc2OC)N(c2cc(C)ccc2C)C3=O)cc1 (centres undefined) | i
O=C(Cc1ccccc1Cl)NC1CCN(c2cc(-c3cccs3)[nH]n2)C1 (centres undefined) | i
O=C(O)c1ccnc(-c2ccnc(NCC(O)c3ccccc3Cl)n2)c1 (centres undefined) | i

Fetched by structure from the entries so far:
SMILES | Methyltransferases
O=C(Cc1ccccc1Cl)NC1CCN(c2cc(-c3cccs3)[nH]n2)C1 (centres undefined) | i
Cc1ccc(CN2C(=O)c3cc4occc4n3CC2(C)C(=O)NC2CCCC(C)C2C)cc1 (centres undefined) | i
O=C(c1c2ccccc2cc2ccccc12)N1CCC(N2CCC[C@@H](C(=O)N3CCOCC3)C2)CC1 | i
COc1ccc([C@@H]2CN(C(=O)CCc3ccsc3)C[C@H]2N(C)C)cc1 | i

Later entries.
SMILES | Methyltransferases
CN1C(=O)c2cc(C(=O)NCCN3CCCC3)nn2CC1(C)C(=O)NC1CCCCCC1 (centres undefined) | i
CC1(C)CC[C@]2(C(=O)O)CC[C@]3(C)C(=CCC4[C@@]5(C)C[C@@H](O)[C@H](O)[C@](C)(CO)C5CC[C@]43C)[C@@H]2[C@@H]1O (some centres undefined) | u
CCC(CC)CN1CC2(CCN(C(=O)CCc3nncn3C)CC2)OC1=O | i
O=C(NO)c1cnc(N2CCN(S(=O)(=O)c3ccc4ccccc4c3)CC2)nc1 | u
CCN(CCCNC(=O)CCc1nnc2n(Cc3ccccc3)c(=O)c3ccccc3n12)c1ccccc1 | i
C=CCNC(=O)N[C@H]1CCN(C(=O)CC(C)(C)C)[C@@H]1C(=O)N[C@@H](Cc1cccs1)C(N)=O | i
O=C(NC1CCCCC1)c1ccc2nnc(Cc3ccc(Cl)cc3)n2c1 | u
O=C(NC1CCCCCC1)C1CCc2nnc(-c3ccccn3)n21 (centres undefined) | i
C=CCN1CC2(CCC1=O)CCN(C(=O)C1CC=CCC1)CC2 (centres undefined) | i
Cc1c(NS(=O)(=O)c2cccc3c2C(=O)c2ccccc2C3=O)c(=O)n(-c2ccccc2)n1C | i
CC1(C)[C@H](Cc2cc(CN3CCCCC3)on2)C[C@@H]1N | i
C[C@@H]1O[C@@H](O[C@H]2[C@H](O[C@H]3CC[C@@]4(C)C(CC[C@]5(C)C4C=C[C@]46OC[C@@]7(CCC(C)(C)C[C@H]74)[C@@H](O)C[C@]65C)[C@]3(C)CO)O[C@H](CO)[C@@H](O)[C@@H]2O[C@@H]2O[C@H](CO)[C@@H](O[C@@H]3O[C@@H](C)[C@H](O)[C@@H](O)[C@H]3O)[C@H](O)[C@H]2O)[C@H](O)[C@H](O)[C@H]1O (some centres undefined) | i
OC[C@H]1O[C@@H](Oc2cc(O)cc(-c3cc4ccc(O)cc4o3)c2)[C@H](O)[C@@H](O)[C@@H]1O | i
Clc1cccc(-c2nnnn2Cc2cccnc2)c1Cl | i
CCOC(=O)C(Cc1cccc(N2CCC(Nc3ccccc3)CC2)c1F)OC (centres undefined) | i
O=C(NC1CCCCCC1)c1nnn2cc(-c3ccccc3)[nH]c(=O)c12 | u
CC1CCCC(NC(=O)C2(C)Cn3c(cc4occc43)C(=O)N2Cc2ccccc2)C1C (centres undefined) | i
Cc1ccccc1CCNC(=O)Cn1ccc2cc(S(=O)(=O)N3CCC(C)CC3)ccc21 | i
Cc1ccc(CSc2nnc3n(CCCOC(C)C)c(=O)c4ccccc4n23)cc1 | i
CCOc1ccc(C2c3cccn3-c3sc4c(c3CN2C(=O)Nc2cccc(C)c2)CCCC4)cc1 (centres undefined) | i
COc1ccc2cc1Oc1ccc(cc1)CC1c3cc(c(OC)cc3CCN1C)Oc1c(OC)c(OC)c(OC)c3c1C(C2)N(C)CC3 (centres undefined) | u
O=P(O)(O)C(Cl)(Cl)P(=O)(O)O | i
CCCC[S+](=O)([O-])N1CC(=O)N(CCCc2ccccc2)CC(O)C1 (centres undefined) | i
COc1ccccc1CNC(=O)C1(C)Cn2cnc(C(=O)NC3CCCCC3)c2C(=O)N1C1CC1 (centres undefined) | i
O=C(Nc1ccc(F)cc1F)N1Cc2c(sc3c2CCCC3)-n2cccc2C1c1cccc(F)c1 (centres undefined) | i
CN1CCN(Cc2nnc(C3CCN(C(=O)C4(N)CC4)CC3)n2C)CC1 | i
CC1CCCC(NC(=O)C2(C)Cn3c(cc4occc43)C(=O)N2Cc2ccccc2Cl)C1C (centres undefined) | i
C=C1CCC2C(C)(COC(C)=O)CCCC2(C)C1CCC(C)CC(=O)O (centres undefined) | i
Cc1cc(F)ccc1NS(=O)(=O)c1cc2c(cc1C)n(C)c(=O)n2C | i
Cc1cc(C)c2nc(-c3ccccn3)cc(C(=O)Nc3ccc(S(=O)(=O)Nc4onc(C)c4C)cc3)c2c1 | u
COc1cccc([S+](=O)([O-])N2CCC3(C2)C(=NC2CCCCC2)NC(=O)N3c2cc(F)cc(F)c2)c1 (centres undefined) | i
COc1ccc(OC)c2c1cc1n2CC(C)(C(=O)NC2CCCCC2C)N(Cc2cccnc2)C1=O (centres undefined) | i
CCc1ncc2c(N3CC4CCC(C3)N4CC(F)(F)F)nc3ccccc3n12 | i
O=C(C1CCOCC1)N1CCC(c2nc(C3CCOCC3)no2)CC1 | i
C=C1CCC2C(OC(=O)C2(O)COC(C)=O)C2C(=C)C(O)CC12 (centres undefined) | u
CC1(C)CCCC2(C)C1C(O)C=C(CO)C2(O)CO (centres undefined) | i
CCCn1c(=O)c2ccccc2n2c(SCc3ccccc3Cl)nnc12 | i
CC(C)CCn1c(=O)c2ccccc2n2c(=O)n(CC(=O)Nc3cccc(Cl)c3)nc12 | i

4 structures from above, sorted by SMILES length, falling.
SMILES | Methyltransferases
COc1ccc(OC)c2c1cc1n2CC(C)(C(=O)NC2CCCCC2C)N(Cc2cccnc2)C1=O (centres undefined) | i
O=C(Nc1ccc(F)cc1F)N1Cc2c(sc3c2CCCC3)-n2cccc2C1c1cccc(F)c1 (centres undefined) | i
CN1CCN(Cc2nnc(C3CCN(C(=O)C4(N)CC4)CC3)n2C)CC1 | i
O=P(O)(O)C(Cl)(Cl)P(=O)(O)O | i

High-throughput results: PubChem BioAssay, National Center for Advancing Translational Sciences (NCATS)

This is a subset; rates above refer to the full screens.
